# Screens as filed in PubChem BioAssay.
# Mtb growth: Mycobacterium tuberculosis H37Rv growth inhibition, putative kinase inhibitor library, confirmatory dose response (AID 2842). inhibition, % at 10 µg/mL; hits with a dose series show IC90 in µg/mL. actives 5.2% (n = 24,000). M. tuberculosis H37Rv growth inhibition; higher % means a stronger effect; some inactives read as strong as hits;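 active means confirmed in a dose series; about a fifth of its hits are not listed in these tables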;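 further: bacteria incubated one week before Alamar blue readout; 0% = bacteria only wells and 100% = bacteria with high antibiotic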
# * marks the source's active call; other numbers are inactive results. The list is partial; the hit share may differ from the screen's.
SMILES,Mtb growth
CCOC(=O)c1oc2cc(O)ccc2c(=O)c1-c1ccc2c(c1)OCCO2,-4%
CCOC(=O)c1nn(-c2ccc(C(F)(F)F)cc2)c(=O)c2c(NC(=O)c3ccccc3Cl)scc12,1%
O=C(c1cccc([N+](=O)[O-])c1)N1CCN=C1SCc1ccccc1,-6%
CCc1ccc(-c2csc(NC(=O)c3ccc(S(=O)(=O)N4CCc5ccccc54)cc3)n2)cc1,15%
Cc1ccccc1NC(=O)CSc1nnc(Cn2c(=O)sc3ccccc32)n1C,-1%
O=C(O)C1Nc2c(O)ccc(Br)c2C2C=CCC12 (stereo unspecified),-5%
COC(=O)c1cc(N=Nc2ccc(O)c3ccccc23)cc(C(=O)OC)c1,2%
CC1CC(C)CN(C(c2ccc(F)cc2)c2sc3ncnn3c2O)C1 (stereo unspecified),1%
Nc1nc(SCC(=O)Nc2cc(C(F)(F)F)ccc2Cl)[nH]c(=O)c1NC(=O)c1ccco1,-9%
CCOCC(=O)Nc1scc2c(C(=O)OCC)nn(-c3ccc(C)cc3)c(=O)c12,-1%
Cc1cccc(S(=O)(=O)NCCOc2ccc(-c3ccc(F)cc3)nn2)c1,18%
COc1cc(C(=O)NCc2nnc(SCC(=O)Nc3cc(C)on3)o2)cc(OC)c1OC,-10%
CC1=C(C(=O)OCc2ccccc2)C(c2ccccc2C)C(C#N)=C(N)O1 (stereo unspecified),-2%
Cc1ccc(S(=O)(=O)CCCC(=O)Nc2ccc3c(c2)C(=O)NC3=O)cc1,-2%
N#C/C(=C\c1ccc(-c2ccccc2[N+](=O)[O-])o1)c1nc(-c2ccco2)cs1,3%
OC(CNC1CCCCC1)COc1ccc(-c2nnco2)cc1 (stereo unspecified),-14%
O=C(CNc1ccc(S(=O)(=O)C(F)(F)F)cc1[N+](=O)[O-])NC1CCS(=O)(=O)C1 (stereo unspecified),-1%
COc1cccc(OCC(=O)Nc2c(C(=O)Nc3ccc(Cl)cc3)oc3ccccc23)c1,2%
Cc1cc2cc(CCNC(=O)c3ccc(S(=O)(=O)N4CCCC4)cc3)c(=O)[nH]c2cc1C,28%
Cn1c(=O)[nH]c(=O)c2c1nc(N1CCCC1)n2CCc1ccccc1,-5%

# 2 entries from above in another layout.
SMILES	Mtb growth
O=C(O)C1Nc2c(O)ccc(Br)c2C2C=CCC12 (stereo unspecified)	-5%
Cc1ccc(S(=O)(=O)CCCC(=O)Nc2ccc3c(c2)C(=O)NC3=O)cc1	-2%

# (next part)
SMILES,Mtb growth
Cc1ccc(C(=O)Oc2ccc(/C=C(\C#N)C(=O)Nc3ccccc3C)cc2)cc1,0%
O=C(Nc1nc(-c2ccc(Cl)c(Cl)c2)cs1)c1cccc(N2C(=O)CCC2=O)c1,6%
CCOC(=O)c1nn(-c2ccccc2)c(=O)c2c(NC(=O)C(C)Cl)scc12 (stereo unspecified),1%
COc1cccc(C(=O)Nc2nnc(-c3ccccc3Cl)s2)c1OC,6%
COc1ccc(CC(=O)Nc2nnc(Cc3ccc(OC)cc3)s2)cc1,5%
Cc1ccc(C)c2[nH]c(=O)c(CCNC(=O)c3ccccc3Br)cc12,-6%
COc1ccc(-n2c(=O)[nH]c3c(C(N)=O)nc(-c4ccc(OCc5ccccc5)cc4)nc32)cc1,23%
O=c1ccn2c(SCc3ccc(Br)cc3)nnc2[nH]1,-4%
Cc1cc2c(=O)n(C)c(SCC(=O)Nc3ccc(O)cc3)nc2s1,4%
Cn1c(=O)[nH]c(=O)c2c1nc(Br)n2Cc1ccc(F)cc1,0%
O=C(Cn1cnc2c(cnn2-c2ccc(F)cc2)c1=O)Nc1cccc(Cl)c1,0%
COCCNC(=O)C(=O)Nc1cc2c3c(c1)C(C)C(=O)N3CCC2 (stereo unspecified),3%
O=C(NCC1COC2(CCCC2)O1)C(=O)Nc1ccc(F)c(Cl)c1 (stereo unspecified),20%
COc1cc2c(=O)nc3n(c2cc1OC)CC(O)=C3C#N,4%
COc1ccc(OC)c2sc(N3CCCCC3)nc12,20%
CN1CCc2c(sc(NC(=O)c3ccc([N+](=O)[O-])cc3)c2C(N)=O)C1,0%
O=C(c1ccc(Br)o1)N1CCN(c2ccc(N3CCCCCC3)nn2)CC1,40%
Nc1nc(SCC(=O)N2CCC(Cc3ccccc3)CC2)[nH]c(=O)c1NC(=O)c1ccccc1,-3%
CC(=O)C[n+]1cn(Cc2ccccc2)nc1N,-5%
NC(=O)CSc1ccc2nnc(CCNC(=O)c3ccc(F)cc3)n2n1,-7%
COc1cccc2sc(Nc3nc(C)c(C(C)=O)s3)nc12,16%
CC(=O)N1CCc2c(sc(NC(=O)c3cccc(Br)c3)c2C#N)C1,-13%
CCOC(=O)CSc1nnc(CNC(=O)c2ccccc2F)n1-c1ccc(F)cc1,-5%
COC(=O)c1ccc(Cn2nnc3sc4c(c3c2=O)CCC(C(C)(C)C)C4)cc1 (stereo unspecified),-1%
Cc1cccc(C)c1Nc1ncnc(N)c1[N+](=O)[O-],-11%
NC(=O)c1nc(-c2ccccc2)nc2c1[nH]c(=O)n2-c1ccc(Cl)cc1,0%
O=c1c2nnn(-c3cccc(F)c3)c2ncn1Cc1ccc(Cl)c(Cl)c1,1%
Cc1ccc(C)c2[nH]c(=O)c(CCNC(=O)C(C)Oc3ccccc3)cc12 (stereo unspecified),-8%
CCSc1nc2c([nH]c3ccccc32)c(=O)n1C,29%
O=S(=O)(Nc1ccc2cn[nH]c2c1)c1ccc(Br)cc1,23%
O=C(N/N=C/c1cc2ccccc2[nH]c1=O)c1ccc(Br)cc1,97%
Cc1nnc(NC(=O)CSc2nnc3[nH]c(=O)c(C)c(C)n23)s1,-5%
CCOc1ccccc1NC(=O)c1oc2ccccc2c1NC(=O)c1cc2ccccc2o1,-8%
Cc1ccc(NC(=O)c2oc3ccccc3c2NC(=O)c2ccc(Br)o2)cc1,11%
COc1ccc2cc(CCNC(=O)C3(c4ccc(Cl)cc4)CCCC3)c(=O)[nH]c2c1,3%
O=C(Nc1nc(-c2ccc(Cl)cc2)cs1)c1ccc(S(=O)(=O)N2CCc3ccccc32)cc1,12%
Clc1cccc(-n2cc(-c3ccccc3)c3c(Cl)ncnc32)c1,17%
Cc1cccc(NC(=O)C(=O)NCC2COC3(CCCCC3)O2)c1 (stereo unspecified),29%
CCCCn1c(CNC(=O)c2ccc(OC)cc2)nnc1SC(C)C,10%
CCS(=O)(=O)c1cccc(C(=O)Nc2sc(C)c(C)c2C(=O)NC)c1,-5%
Cc1cccc2sc(N(Cc3cccnc3)C(=O)/C=C/c3cccc([N+](=O)[O-])c3)nc12,7%
COc1ccc(OCC(O)Cn2c(N/N=C/c3ccccc3)nc3c2c(=O)n(C)c(=O)n3C)cc1 (stereo unspecified),10%
Cc1ccc(-c2nnc3ccc(SCC(=O)Nc4nc5ccccc5s4)nn23)cc1,-11%
CCOC(=O)c1ccc(NC(=O)CSc2nnc(-c3c[nH]c4ccccc34)n2CC)cc1,-10%
O=C(Nc1ccc(Cl)cc1C(=O)c1ccccc1Cl)c1ccccc1F,1%
CCOC(=O)c1nn(-c2ccc(OC)cc2)c(=O)c2c(NC(=O)COc3ccccc3)scc12,-6%
Cc1ccc(C)c2[nH]c(=O)c(CCNC(=O)C3(c4ccc(Cl)cc4)CCCC3)cc12,6%
O=[N+]([O-])c1cc(S(=O)(=O)C(F)(F)F)ccc1Sc1cccc2cccnc12,43%
CCOc1ccc(C(=O)NCCc2cc3c(OC)ccc(OC)c3[nH]c2=O)cc1OCC,-2%
O=C(CSc1nnc(-c2cccs2)o1)N1CCc2ccccc21,19%
Cc1ccc(-n2nc3c(c2NC(=O)/C=C\c2ccc4c(c2)OCO4)CSC3)c(C)c1,-2%
C=CCOC(=O)C1=C(C)NC(=O)NC1c1ccc(C)cc1 (stereo unspecified),-1%
CC(C)c1ccc(OCC(=O)N/N=C/c2ccco2)cc1,7%
O=C(NCC1COc2ccccc2O1)c1n[nH]c(=O)c2ccccc12 (stereo unspecified),3%
O=C(Cn1cnc2c(nnn2-c2ccc(Cl)cc2)c1=O)N1CCc2ccccc21,-7%
Nn1c(SCC(=O)Nc2ccc(F)c(Cl)c2)nnc(CCC(=O)O)c1=O,-15%
O=C(CSc1ccc(-c2ccc(-n3ccnc3)cc2)nn1)c1ccc([N+](=O)[O-])cc1,0%
CSc1ncnc2nc[nH]c12,-4%
CC(C)N1CCc2c(sc(NC(=O)c3ccc(-c4ccccc4)cc3)c2C(N)=O)C1,59%
Cc1c(Cl)cccc1-n1ccn(CC(N)=O)c(=O)c1=O,-10%

# (cont.)
SMILES,Mtb growth
CS(=O)(=O)c1ccc(S(=O)CC(=O)Oc2ccc(C3CCCCC3)cc2)c([N+](=O)[O-])c1 (stereo unspecified),32%
COC(=O)CSCC(=O)Nc1nnc(-c2ccccc2C)s1,14µg/mL*
COc1cccc(C(=O)Nc2nnc(C(C)C)s2)c1OC,6%
CCOC(=O)c1nn(-c2ccc(OC)cc2)c(=O)c2c(NC(=O)c3cccc(OC)c3OC)scc12,-2%
CCCCOc1ccc(C(=O)Nc2nc3c(ccc4ccccc43)s2)cc1,1%
Cc1nc(SCC(=O)Nc2sc3c(c2C#N)CCCC3)c2c3c(sc2n1)CCC3,-9%
COc1ccc2cc(CCNC(=O)Cc3ccccc3)c(=O)[nH]c2c1,4%
O=C(Nc1ccc2c(c1)OCO2)c1oc2ccccc2c1NC(=O)C1CCCO1 (stereo unspecified),-8%
COc1ccccc1Cn1cc2c(-c3ccc(F)cc3)nnc-2c2cc(C)ccc21,49µg/mL*
CCOC(=O)CCC(=O)Nc1scc2c(C(=O)OCC)nn(-c3ccc(OC)cc3)c(=O)c12,-3%
O=C(Nc1nnc(SCc2ccc(Br)cc2)s1)c1ccc2ccccc2c1,6%
CC(=O)c1cccc(N/C=C(\C#N)c2nc(-c3cccc([N+](=O)[O-])c3)cs2)c1,3%
Cc1ccc(-c2ccc(SCC(=O)Nc3ccc4c(c3)OCO4)nn2)cc1,-2%
CCS(=O)(=O)c1cccc(C(=O)Nc2nc3c(s2)COc2ccccc2-3)c1,5%
CC1CCN(c2cc(=O)n(Cc3ccc(F)cc3)c(=O)[nH]2)CC1,-8%
COc1cc(OC)cc(C(=O)Nc2nnc(-c3ccc(Br)cc3)o2)c1,52µg/mL*
COc1ccc(-c2nnc3c4cc(OC)ccc4n(Cc4ccc(F)cc4)cc2-3)cc1,16%
CC(=O)c1ccc(NC(=O)C(=O)c2c[nH]c3ccccc23)cc1,2%
COc1ccc(NC(=O)c2oc3ccccc3c2NC(=O)c2ccc(Br)o2)c(OC)c1,7%
Cc1ccccc1N1CCn2c1nc1c2c(=O)n(CC(=O)O)c(=O)n1C,-21%
Cc1nc2sc(C(c3ccccc3)N3CCC(O)CC3)c(O)n2n1 (stereo unspecified),5%
COC(=O)c1ccc(NC(=O)CSc2nc(-c3cccc(C)c3)ns2)cc1,<0.2µg/mL*
COc1ccc(S(=O)(=O)Nc2ccc3c(c2)C(=O)Nc2ccccc2O3)cc1Cl,1%
CCOc1ccc2c(c1)c(=O)c(S(=O)(=O)c1ccc(F)cc1)cn2Cc1cccc(F)c1,12%
COc1ccc(-n2ccnc(SCC(=O)Nc3ccc(C(C)C)cc3)c2=O)cc1OC,5%
COc1ccccc1-c1nnc(NC(=O)c2ccco2)o1,13µg/mL*
CC(=O)c1cccc(-n2c(O)c(C3=c4ccccc4=NC3=O)sc2=S)c1,2%
COc1nn(C)cc1C(=O)Nc1ccc(S(N)(=O)=O)cc1,2%
Nc1nc(SCC(=O)N2CCCc3ccccc32)[nH]c(=O)c1NC(=O)c1ccccc1,8%
O=C(Nc1nnc(-c2ccc3c(c2)OCCO3)o1)c1cccc(NS(=O)(=O)c2ccccc2)c1,36%
CS(=O)(=O)c1ccc(-c2nnc(NC(=O)c3ccc(Cl)cc3)o2)cc1,49%
CCCC(=O)Nc1c(C(=O)Nc2ccc3c(c2)OCO3)oc2ccccc12,-10%
CCN(Cc1ccccc1)S(=O)(=O)c1ccc(C(=O)Nc2ccc3nc(C)sc3c2)cc1,3%
COCCOC(=O)c1c(C)oc2ccc(NS(=O)(=O)c3c(C)cc(C)cc3C)cc12,-11%
O=C(Nc1nc(-c2ccc3c(c2)CCCC3)cs1)c1cc(=O)c2ccccc2o1,6%
COc1ccc(-c2nnc3ccc(SCC(=O)Nc4ccc(F)cc4)nn23)cc1,-6%
CCN1CCc2c(sc(NC(=O)c3cc(Cl)sc3Cl)c2C(N)=O)C1,17%
Cc1c(C)n2c(SCc3c(F)cccc3Cl)nnc2[nH]c1=O,-1%
COc1cc(C(=O)Nc2nnc(-c3ccc4c(c3)CCCC4)o2)cc(OC)c1OC,44µg/mL*
COc1cccc(NC(=O)Cn2cnc3c(cnn3C)c2=O)c1,-7%
CCN(CC)c1nc2c(c(=O)[nH]c(=O)n2C)n1CC(=O)c1ccccc1,1%

# Grouped by structure: those above with a thiophene ring, fused or not.
SMILES,Mtb growth
CCOC(=O)c1nn(-c2ccc(C(F)(F)F)cc2)c(=O)c2c(NC(=O)c3ccccc3Cl)scc12,1%
CCOCC(=O)Nc1scc2c(C(=O)OCC)nn(-c3ccc(C)cc3)c(=O)c12,-1%
CCOC(=O)c1nn(-c2ccccc2)c(=O)c2c(NC(=O)C(C)Cl)scc12 (stereo unspecified),1%
Cc1cc2c(=O)n(C)c(SCC(=O)Nc3ccc(O)cc3)nc2s1,4%
CN1CCc2c(sc(NC(=O)c3ccc([N+](=O)[O-])cc3)c2C(N)=O)C1,0%
CC(=O)N1CCc2c(sc(NC(=O)c3cccc(Br)c3)c2C#N)C1,-13%
COC(=O)c1ccc(Cn2nnc3sc4c(c3c2=O)CCC(C(C)(C)C)C4)cc1 (stereo unspecified),-1%
CCS(=O)(=O)c1cccc(C(=O)Nc2sc(C)c(C)c2C(=O)NC)c1,-5%
CCOC(=O)c1nn(-c2ccc(OC)cc2)c(=O)c2c(NC(=O)COc3ccccc3)scc12,-6%
O=C(CSc1nnc(-c2cccs2)o1)N1CCc2ccccc21,19%
CC(C)N1CCc2c(sc(NC(=O)c3ccc(-c4ccccc4)cc3)c2C(N)=O)C1,59%
CCOC(=O)c1nn(-c2ccc(OC)cc2)c(=O)c2c(NC(=O)c3cccc(OC)c3OC)scc12,-2%
Cc1nc(SCC(=O)Nc2sc3c(c2C#N)CCCC3)c2c3c(sc2n1)CCC3,-9%
CCOC(=O)CCC(=O)Nc1scc2c(C(=O)OCC)nn(-c3ccc(OC)cc3)c(=O)c12,-3%
CCN1CCc2c(sc(NC(=O)c3cc(Cl)sc3Cl)c2C(N)=O)C1,17%
